Source: PubChem BioAssay (National Center for Advancing Translational Sciences (NCATS))
gsp antag: gsp mutant antagonism; gsp-mutant cells, cAMP HTRF, 30 min; control for the full effect not named in the record; Potency, µM (doses to about 76.9 µM), without a hit: at the top dose activity change, negative = inhibition, usual class: inhibitors; hit rate 0.4% among 340,000; AID 624288; active = falling curve of any shape with a large fitted effect; inconclusive = falling curve, mostly with a smaller effect; inactive = flat or rising curve; cell line not stated here;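 further: intracellular cAMP measured with PDE inhibitor Ro 20-1724 present during compound exposure; potency means the concentration at half of the fitted maximal effect; on the % scale 0 is the no-effect control and ±100 the full control effect; nearly all actives have a fitted effect of over 65% in size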
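HTRF cAMP measurement after 30 min RT detection following 30 min, 37C compound treatment alongside […] (added as 300 uM solution) in G418-selected cells seeded at 2000/well and grown 16–24 h.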
Menin MLL FP FL: menin-MLL binding inhibition, fluorescein peptide. AID 1766. FP activity change, % at 61.4 µM. 290,000 tested, under 10 active. Fluorescence polarization, fluorescein-MLL peptide displacement from menin; inconclusive = falling polarisation curve, or a change in total fluorescence; inactive = total fluorescence flat and polarisation flat or rising; no compound was filed as active; the % refers to the polarisation; negative = inhibition;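 further: % of control where 0% means no effect; inhibitors lower the polarisation; unlabelled MLL peptide was the positive control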
gsp ag: agonists of gsp mutant (McCune-Albright syndrome). gsp mutant cells, cAMP HTRF, 30 min; control for the full effect not named in the record. Potency, µM (titrated, usually from 76.9 µM), without a hit: top-dose activation (cAMP increase), usual class: activators. hit rate 0.13% among 340,000. AID 624287; active = well fitted activation curve with a large enough effect; inconclusive = small, poorly fitted or top-dose-only effect, or another doubt; inactive = no such curve, though single readings can be large or run the other way; cell line not stated here;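 further: phosphodiesterase inhibitor Ro 20-1724 added with compounds to block cAMP breakdown; potency means the concentration at half of the fitted maximal effect; nearly all actives have a fitted effect of over 60% in size; about a fifth of the inactives were tested at one dose only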
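Cells in DMEM/10% FBS with G418 were pretreated with compounds in DMSO plus […] (300 uM stock) for 30 min at 37C. cAMP was measured by HTRF (cAMP-d2 plus anti-cAMP antibody-K) after 30 min at room temperature.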
TRPML1 ag: human mucolipin-1 channel agonism; Q9GZU1; TRPML1-expressing cells, Ca2+ dye fluorescence, FDSS; host cell line not named in the record; reference of the full effect not given here; activation, % (concentration not given with the values); hit rate 0.12% among 410,000; in the data active = activation above about 50%; inconclusive = about 30% to 50%; inactive = below about 30%; further: 0% is about no effect; the text of the record puts the active cut at 80%
Target sequence (Q9GZU1 whole entry, looked up): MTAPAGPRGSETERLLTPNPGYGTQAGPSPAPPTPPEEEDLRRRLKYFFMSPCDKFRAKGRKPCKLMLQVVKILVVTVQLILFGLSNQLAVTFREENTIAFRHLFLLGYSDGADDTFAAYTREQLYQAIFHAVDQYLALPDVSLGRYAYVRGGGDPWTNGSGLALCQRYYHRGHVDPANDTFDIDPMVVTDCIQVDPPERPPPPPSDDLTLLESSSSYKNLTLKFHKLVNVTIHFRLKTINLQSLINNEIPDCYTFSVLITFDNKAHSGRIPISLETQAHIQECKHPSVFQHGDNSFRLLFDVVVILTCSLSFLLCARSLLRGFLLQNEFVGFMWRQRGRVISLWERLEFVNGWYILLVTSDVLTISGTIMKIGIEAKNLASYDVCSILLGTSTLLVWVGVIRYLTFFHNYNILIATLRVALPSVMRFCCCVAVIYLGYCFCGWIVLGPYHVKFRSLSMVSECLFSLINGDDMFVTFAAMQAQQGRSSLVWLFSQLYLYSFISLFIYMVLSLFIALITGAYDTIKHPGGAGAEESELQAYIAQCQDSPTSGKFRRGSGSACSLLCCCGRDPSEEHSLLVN
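TRPML1-DL cells, Tet-induced overnight (~16 h, 37 degrees C), loaded 45-90 min at room temperature with Ca8 no-wash calcium dye plus quencher. FDSS fluorescence: 10 s baseline, compound pin-transfer, 110 s agonist read, then EC80 54-4 (4uM final) and 110 s antagonist read.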
ClpP mod: qHTS Assay for Activators of ClpP. ATP-dependent Clp protease proteolytic subunit (Bacillus subtilis (strain 168)), P80244. purified B. subtilis ClpP, FRET peptide cleavage, 20 min. Potency, µM (highest dose often 57.5 µM), without a hit: at the top dose activity change, negative = active. hit rate 1.9% among 340,000. AID 651965, 2013; active = well fitted falling curve with a large enough effect; inconclusive = small, poorly fitted or top-dose-only effect; inactive = no such curve, though single readings can be large or run the other way; further: potency means the concentration at half of the fitted maximal effect; the source files actives as falling curves though it sought activators and does not explain the sign; nearly all actives have a fitted effect of over 65% in size; many hits overshoot -100%
Target sequence (P80244 whole entry, looked up): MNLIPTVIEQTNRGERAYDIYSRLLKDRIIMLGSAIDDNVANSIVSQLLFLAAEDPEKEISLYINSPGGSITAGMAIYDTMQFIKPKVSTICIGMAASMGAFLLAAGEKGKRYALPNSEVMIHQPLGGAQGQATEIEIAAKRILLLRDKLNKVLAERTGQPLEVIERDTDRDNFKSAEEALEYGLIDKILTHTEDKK
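FRET quenching reversal measured ClpP activation: 10 microg/mL B. subtilis ClpP at pH 8 with the FRET-FV decapeptide, read at 430 nm after 320 nm excitation. The 20-min minus 0-min signal was scaled between DMSO/no-enzyme wells and ADEP (5.8 microM final).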
TRPML1 inh: blocks the human TRPML1 channel. Q9GZU1. TRPML1-inducible cells, Ca2+ dye fluorescence, FDSS; hits give low values; inhibition of EC80 agonist-evoked calcium signal. activity change, negative = inhibition, % (concentration not given with the values). hit rate 0.02% among 390,000; in the data active means activity change below about -50%; inconclusive means about -30% to -50%; inactive means above about -30%;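 further: stimulus is agonist 54-4 at its EC80 concentration; on the % scale 0 is the no-effect control and ±100 the full control effect; compound concentration not given in the record; the text of the record puts the active cut at -80%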
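Tet-induced TRPML1-DL cells loaded with Ca8 no-wash calcium dye were read kinetically on FDSS. Compound addition was followed by EC80 agonist 54-4 (4 uM final); inhibition was read over 110 s.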
Numbers without * were called inactive; u = inconclusive; x = no result given; & = joins results of further samples; [ ] = dose if it differs, or a comment.

Value order: gsp antag, Menin MLL FP FL, gsp ag, TRPML1 ag, ClpP mod, TRPML1 inh
- O=S(=O)(Nc1ccc(C(F)(F)F)cn1)c1ccccc1
    -2%, -1.1, -2%[15.4 µM], -0.5, x, 11
- Nc1ncc(-n2cncn2)c(-c2ccccc2)n1
    -3%, -4.6, 0%[15.4 µM], -0.2, x, 17
- Cc1cccc(C(=O)NC(C)C(c2cccs2)N2CCOCC2)c1 (centres undefined)
    10%, 4.5, -20%[15.4 µM], -1.2, x, 8
- CC(C)c1ccc(NC(=O)CN2C(=O)NC3(CCCC3)C2=O)cc1
    8%, 0.1, u, -0.5, x, -12
- COc1ccccc1/C=N/NC(=O)CSc1cc(C)nc2ccccc12
    -2%, -2.1, 17%, 1.0, x, 19
- CCN[C@H]1C[C@H](C)S(=O)(=O)c2sc(S(N)(=O)=O)cc21
    0%, x, x, 0.2, 2.5%, -4
- Cc1ccc(NC(=O)COC(=O)C2CCN(c3ccc(C(F)(F)F)cn3)CC2)cc1C
    -7%, x, -52%[inhibitor], -0.2, -11%, 3
- CS(=O)(=O)N(CC(=O)N1CCCCCC1)c1cccc(Cl)c1Cl
    -4%, -2.1, 21%, x, -0.7%, x
- CCS(=O)(=O)NCCc1sc2nc(-c3ccc(OC)cc3)nn2c1C
    x, x, x, 1.0, -1.9%, 10
- Cc1ccccc1NC(=O)OCc1cn(-c2ccc(Cl)cc2)nn1
    8%, 5.6, 0%, -1.4, 1.7%, -5

Carrying on.
Value order: gsp antag, Menin MLL FP FL, gsp ag, TRPML1 ag, ClpP mod, TRPML1 inh
- CC(C)(C)c1ccccc1OCC(=O)NCCC(=O)O
    -9%, 2.9, -20%, -1.0, 2.1%, 18
- CC(C)C[C@H](NC(=O)c1nc[nH]c1C(=O)NC1CCNCC1)C(=O)OC(C)(C)C
    10%, x, x, 0.4, 0.9%, 6
- CCOc1ccc(N2CC(C(=O)Nc3ccc(S(=O)(=O)N4CCCCC4)cc3)CC2=O)cc1 (centres undefined)
    2%, x, 16%, 0.6, 7.9µM*, 2
- COc1ccc(S(=O)(=O)N2CCN(CCOc3ccccc3Cl)CC2)cc1OC
    -23%, x, -10%, 1.3, -2.0%, -13
- CCOC(=O)C1CCN(C/C=C/c2ccccc2)CC1
    6%, -0.2, 12%, -0.2, 0.1%, 3
- CN(C(=O)COc1ccc(Br)cc1Cl)C1CCCCC1
    0%, 0.8, -5%[15.4 µM], 2.0, 1.8%, 4
- OCC[C@@H]1C[C@H](O)[C@@H](O)[C@]2(Cc3ccccc3CO2)O1
    11%, 0.4, -5%, 0.1, -0.7%, -19
- CCOc1ccc(N(CC(=O)NCc2ccccc2)C(=O)Cn2nnc(-c3ccc(C)o3)n2)cc1
    -7%, 4.1, -19%, 0.2, x, 29
- CC(Sc1nnc2n1CCCCC2)C(=O)Nc1ccccc1[N+](=O)[O-] (centres undefined)
    -17%, x, -14%, 0.9, 2.7%, 9
- O=C(NNC(=O)C1CCCCC1)c1ccco1
    4%, 1.1, -24%, -0.3, x, 46

Further structures.
Value order: gsp antag, Menin MLL FP FL, gsp ag, TRPML1 ag, ClpP mod, TRPML1 inh
- COc1ccc(CCN2C(=O)CC(NNC(=O)c3ccccc3Br)C2=O)cc1 (centres undefined)
    4%, 0.8, 5%, -0.7, 0.1%, 13
- COc1ccc2[nH]c3c(c2c1)CCN1C(=O)C(CC(=O)NCc2cccc(C(F)(F)F)c2)C[C@H](C(=O)N2CCCCC2)[C@@]31CCc1ccccc1 (some centres undefined)
    1%, x, x, 0.1, -1.1%, -5
- COC(=O)c1ccc(C2C(C(=O)c3cc4ccccc4o3)=C(O)C(=O)N2c2cc(C)on2)cc1 (centres undefined)
    1%, x, 50%[15.4 µM], 2.5, x, 23
- COc1ccc(-c2cc(=O)oc3cc(OCC(=O)NCC4CCC(C(=O)O)CC4)ccc23)cc1 (centres undefined)
    -9%, 0.1, x, x, u, x
- O=C(COC(=O)CNC(=O)C1CCCCC1)Nc1ccc2ccccc2c1
    4%, -1.3, -27%, -1.4, -1.1%, 17
- COc1ccc(C2=[N+](C)CCn3cccc32)c(OC)c1
    2%, 2.0, 7%, -0.8, 33%, 1
- COc1ccc(CN(C)CC(=O)NC2CCCc3ccccc32)cc1OC (centres undefined)
    x, 0.5, -3%[15.4 µM], 1.2, x, 1
- Cc1cccc(N2CCN(C(=O)c3cccn4c(=O)c5cc(Cl)ccc5nc34)CC2C)c1 (centres undefined)
    x, x, x, -0.1, -14%, 15
- O=c1c2ccccc2n2cnnc2n1-c1ccccc1
    8%, 0.0, 14%, 0.3, 1.4%, -8
- O=C(COC(=O)c1c2ccccc2cc2ccccc12)NCC(F)(F)F
    24%, 3.2, 39%, 1.8, u, 0

An excerpt of these results, field by field:
COc1ccc2[nH]c3c(c2c1)CCN1C(=O)C(CC(=O)NCc2cccc(C(F)(F)F)c2)C[C@H](C(=O)N2CCCCC2)[C@@]31CCc1ccccc1 (some centres undefined)
  gsp antag: 1%
  Menin MLL FP FL: x
  gsp ag: x
  TRPML1 ag: 0.1
  ClpP mod: -1.1%
  TRPML1 inh: -5
COC(=O)c1ccc(C2C(C(=O)c3cc4ccccc4o3)=C(O)C(=O)N2c2cc(C)on2)cc1 (centres undefined)
  gsp antag: 1%
  Menin MLL FP FL: x
  gsp ag: 50%[15.4 µM]
  TRPML1 ag: 2.5
  ClpP mod: x
  TRPML1 inh: 23
COc1ccc(-c2cc(=O)oc3cc(OCC(=O)NCC4CCC(C(=O)O)CC4)ccc23)cc1 (centres undefined)
  gsp antag: -9%
  Menin MLL FP FL: 0.1
  gsp ag: x
  TRPML1 ag: x
  ClpP mod: u
  TRPML1 inh: x
O=C(COC(=O)CNC(=O)C1CCCCC1)Nc1ccc2ccccc2c1
  gsp antag: 4%
  Menin MLL FP FL: -1.3
  gsp ag: -27%
  TRPML1 ag: -1.4
  ClpP mod: -1.1%
  TRPML1 inh: 17

The listing continues.
Value order: gsp antag, Menin MLL FP FL, gsp ag, TRPML1 ag, ClpP mod, TRPML1 inh
- CC1(C)CC(=O)C2=C(C1)NC(=O)NC2c1ccccc1 (centres undefined)
    2%, -0.6, -3%, 2.6, -6.3%, 7
- CC(=O)N1CCN(C(=O)c2cc3c(s2)CCC(C)C3)CC1 (centres undefined)
    2%, x, -12%, -0.6, -20%, -2
- Nc1cc(F)ccc1N1CCCCCC1
    -3%, 0.2, -71%[inhibitor], -0.4, x, 12
- Cc1ccc(CN2CCc3[nH]c(=S)[nH]c(=O)c3C2)cc1
    -1%, x, 2%, -0.3, -25%, 27
- CCC(Cn1nnc2ccccc2c1=O)NC(=O)Nc1cc(C)cc(C)c1 (centres undefined)
    x, x, x, 0.7, -2.5%, -1
- C[C@H](CO)N1C[C@H](C)[C@@H](CN(C)S(=O)(=O)c2ccc(F)cc2)Oc2c(NS(=O)(=O)c3ccc(F)cc3)cccc2C1=O
    -15%, x, x, 0.0, -1.5%, 17
- O=C(Nc1ccc(O)cc1)c1ccccc1OCc1ccccc1
    -20%, -2.6, 3%, 1.8, -0.6%, 1
- CCCc1nnc(SCC(=O)N2CCCC(C)C2)n1CC1CCCO1 (centres undefined)
    11%, 6.7, 4%, -0.3, -3.3%, -13
- Oc1c(C(c2ccccc2)N2CCC(O)CC2)sc2nc(-c3ccco3)nn12 (centres undefined)
    x, x, x, 0.3, 0.0%, -1
- O=C1c2ccccc2C2(c3cc(C(F)(F)F)cc(C(F)(F)F)c3)NCCN12 (centres undefined)
    u, 2.1, 43%, 8.2, 0.0%, -8

Carrying on.
Value order: gsp antag, Menin MLL FP FL, gsp ag, TRPML1 ag, ClpP mod, TRPML1 inh
- CCOC(=O)NC(=O)CSc1ccc2ccccc2n1
    -2%, 0.2, u, 3.1, x, 21
- O=C(CN(CC1CCCO1)C(=O)CNS(=O)(=O)c1ccc(F)cc1)NCC1CCCO1 (centres undefined)
    12%, x, 10%[15.4 µM], -0.5, x, -10
- Cc1cccc(NC(=O)Cn2cc(C(=O)C3CCCCC3)c3ccccc32)c1C
    x, x, x, 1.4, -4.1%, -16
- Cc1nc(SCC(=O)c2c[nH]c3ccccc23)n[nH]1
    -1%, 3.4, -19%, 0.4, -2.8%, 12
- Cc1cc(Nc2ccc(F)cc2C)n2ncnc2n1
    0%, -3.0, 25%, 1.0, 0.7%, -8
- COc1cccc(N(CC(=O)Nc2cccc(F)c2)S(C)(=O)=O)c1
    -9%, 5.1, 25%, -0.6, -0.4%, -22
- CCOC(=O)c1c(OCCO)nn(-c2ccccc2)c1N
    1%, 0.5, 10%[15.4 µM], -0.5, x, 25
- Cc1cc(=O)n2nc(N3CCCC(C(=O)NCc4ccc(F)cc4)C3)sc2n1 (centres undefined)
    10%, 6.9, u, -0.3, -0.6%, 6
- COc1cc(C(=O)NC2CCN(CC(=O)NC3CCCCC3C)CC2)cc(OC)c1OC (centres undefined)
    -14%, -2.6, -46%[inhibitor], 0.4, x, 48
- CC(C)(C)OC(=O)N1CCC[C@H]1c1nnc(SCC(=O)Nc2ccc(Br)cc2)o1
    -8%, 4.8, -3%[15.4 µM], -0.2, x, 1

The list continues.
Value order: gsp antag, Menin MLL FP FL, gsp ag, TRPML1 ag, ClpP mod, TRPML1 inh
- NC1=NCc2ccccc21
    4%, 0.9, 0%, 0.8, 0.4%, 20
- Cc1cccc(C)c1OCC(=O)Nn1c(=O)[nH]c2ccccc2c1=O
    8%, -2.1, -10%, 0.2, x, 18
- COc1cc(OC)c(N(C)S(=O)(=O)c2cccc(C(=O)OCc3c(C)noc3C)c2)cc1Cl
    -20%, -0.7, -11%[15.4 µM], 0.5, x, 24
- CCC(CC)C(=O)Nc1c(C(=O)N2CCN(c3ccccc3)CC2)oc2ccccc12
    -5%, x, -3%, -0.3&3.1, -0.3%&-2.9%, -5&14
- O=c1cc(-c2ccccc2)[nH]c2ccc(F)cc12
    18%, 3.7[94.6 µM], 29%, -0.5, -18%, -5
- COCCN(C(=O)COC(=O)c1ccccc1Cc1ccccc1)c1c(N)n(Cc2ccccc2)c(=O)[nH]c1=O
    -9%, x, -5%, 0.3, -0.8%, 14
- Cc1ccc(Cn2c(C)c(CNCc3ccc(OC(C)C)cc3)c(C(=O)O)c2C)cc1
    x, x, x, -0.9, -0.6%, 5
- S=C(NCC1CCCO1)N1CCN(Cc2ccccc2)CC1 (centres undefined)
    16%, -2.2, -11%[15.4 µM], -0.5, x, -10
- c1ccc(-c2nccc(-c3ccc(-n4cnc5ccccc54)cc3)n2)nc1
    4%, 5.4, u, 0.5, -4.0%, 4
- COc1cccc2c(=O)c3c(oc12)CCCC3
    x, x, 16%, -0.6, 3.7%, 3
